BJeLR viability – lowers viability of BJeLR cells. BJeLR fibroblasts viability, CellTiterGlo ATP luminescence, 48 h; HRASV12, hTERT and SV40 LT/ST transformed. AID 2275. viability loss activity score, % (concentration not given with the values). 0.64% of 30,000 active; in the data active means viability loss activity score above about 50%; about a fifth of its hits are not listed in these tables;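 further: higher score means fewer live cells and less ATP luminescence; stock transfer was 50 or 100 nL into about 30 µL; 0% = vehicle wells and 100% = a reference killing control; one replicate is shown; the record names a cut of 85%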
A1 inh – blocks A1 activity | caspase activation, % (concentration not given with the values) | MEF A1-2A-BIM cells, caspase-Glo luminescence, 3 h; percent of clofoctol signal, DMSO as zero | 0.51% of 21,000 active | AID 2241;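 active means most replicate scores above 10, or exactly half above 10 with mean activity above 10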;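 further: effector caspase 3 and 7 activity cleaving a DEVD luciferin substrate; 50 nL library stock added to about 30 µL; numbers are from one replicate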
Starred values were filed as active, the others as inactive; / = no result given. This is a subset, so the mix of outcomes need not match the whole.

SMILES | BJeLR viability | A1 inh
COc1ccc(CN(C)C[C@@H]2Oc3ccc(NC(=O)NC4CCCCC4)cc3C(=O)N([C@H](C)CO)C[C@@H]2C)cc1 | -3.5 | -1.3
Cc1noc(C)c1NC(=O)N(C)C[C@H]1Oc2c(NS(=O)(=O)c3ccc(F)cc3)cccc2C(=O)N([C@H](C)CO)C[C@H]1C | -6.4 | /
C[C@@H]1CN([C@@H](C)CO)C(=O)c2cc(NS(=O)(=O)c3ccc(F)cc3)ccc2O[C@H]1CN(C)C(=O)Nc1ccc2c(c1)OCO2 | -1.4 | 1.2
Cn1c(SCC(=O)c2ccccc2)nnc1C1COc2ccccc2O1 (stereo not drawn) | -1.8 | 0.4
CCOc1ccc(-c2cc(C(F)(F)F)c(C#N)c(SCC)n2)cc1 | 2.3 | -0.8
C[C@H]1CN([C@@H](C)CO)C(=O)c2cc(NS(=O)(=O)c3cn(C)cn3)ccc2O[C@H]1CN(C)CC1CCCCC1 | 1.2 | 0.4
Cc1noc(C)c1NC(=O)Nc1ccc2c(c1)C(=O)N([C@@H](C)CO)C[C@H](C)[C@H](CN(C)S(C)(=O)=O)O2 | 0.0 | -0.5
C[C@H]1CN([C@@H](C)CO)C(=O)c2cc(NC(=O)Nc3ccc(F)cc3)ccc2O[C@@H]1CN(C)Cc1ccncc1 | 2.0 | -0.6
COc1ccccc1CNc1nc2c(-c3cccc(C)c3)nnn2c2ccccc12 | -1.6 | -1.0
Cc1ccc(CNC(=O)C2CCN(S(=O)(=O)c3ccc4nc(-c5ccccc5)[nH]c4c3)CC2)cc1 | -0.2 | -0.7
Cc1onc(-c2c(Cl)cccc2Cl)c1C(=O)ON1C(=O)CCC1=O | 1.6 | 0.3
CC(CC(=O)N1CCc2ccccc2C1)CC1=NS(=O)(=O)c2ccccc2N1 (stereo not drawn) | 2.5 | 0.5
C[C@H]1CN([C@@H](C)CO)C(=O)c2cccc(NC(=O)C3CCCCC3)c2O[C@@H]1CN(C)Cc1ccc(Cl)c(Cl)c1 | 0.2 | /
O=C(Nc1cccc(C(F)(F)F)c1)N1CCN(Cc2ccccc2)CC1 | -3.0 | 0.2
Cc1cc(C(=O)Nc2cccc3c2O[C@H](CN(C)C(=O)Nc2ccc4c(c2)OCO4)[C@@H](C)CN([C@H](C)CO)C3=O)n(C)n1 | -5.5 | /
N[C@@H](CO)CSCc1ccccc1 | 8.0 | -0.9
O=C(CC(c1ccccc1)c1ccccc1)Nc1ccc(Cl)cc1 | 6.8 | 0.9
C[C@H]1CN([C@@H](C)CO)C(=O)c2cccc(NS(=O)(=O)c3ccccc3)c2O[C@H]1CN(C)Cc1ccc(Oc2ccccc2)cc1 | 1.9 | /
C[C@H]1CN([C@@H](C)CO)C(=O)c2cc(NS(C)(=O)=O)ccc2O[C@H]1CN(C)Cc1ccc(-c2ccccc2)cc1 | -1.3 | 0.0
Cc1c(C(=O)Sc2ccccc2)sc2nc(C(F)(F)F)nn12 | -1.2 | 2.1
C[C@H]1CN([C@@H](C)CO)C(=O)c2cccc(N(C)C)c2O[C@@H]1CN(C)S(=O)(=O)c1cccs1 | -8.1 | /
Cc1ccc(O)c(C2=Nc3ccccc3N=C(c3ccco3)C2)c1 | 6.7 | -0.1
C[C@H]1CN([C@@H](C)CO)C(=O)c2cccc(NC(=O)Nc3ccc(F)cc3)c2O[C@H]1CN(C)Cc1ccc(C(=O)O)cc1 | 0.8 | /
C[C@H](CO)N1C[C@H](C)[C@H](CN(C)S(=O)(=O)c2ccccc2)Oc2c(NC(=O)c3ccc(-c4nccs4)cc3)cccc2C1=O | -1.8 | /

Sorted by SMILES length (low to high): part of the list above.
SMILES | BJeLR viability | A1 inh
O=C(CC(c1ccccc1)c1ccccc1)Nc1ccc(Cl)cc1 | 6.8 | 0.9
Cn1c(SCC(=O)c2ccccc2)nnc1C1COc2ccccc2O1 (stereo not drawn) | -1.8 | 0.4
CCOc1ccc(-c2cc(C(F)(F)F)c(C#N)c(SCC)n2)cc1 | 2.3 | -0.8
O=C(Nc1cccc(C(F)(F)F)c1)N1CCN(Cc2ccccc2)CC1 | -3.0 | 0.2
Cc1onc(-c2c(Cl)cccc2Cl)c1C(=O)ON1C(=O)CCC1=O | 1.6 | 0.3

Additional results follow:
SMILES | BJeLR viability | A1 inh
C[C@@H]1CN([C@H](C)CO)C(=O)c2cc(NC(=O)Nc3cccc4ccccc34)ccc2O[C@H]1CN(C)Cc1ccncc1 | -3.5 | -0.1
Cc1cc2c(cc1S(=O)(=O)N1CCc3ccccc31)OCC(=O)N2 | -10.8 | -0.5
C[C@H]1CN([C@@H](C)CO)C(=O)c2cc(NC(=O)C3CCCCC3)ccc2O[C@H]1CN(C)Cc1ccc(C(=O)O)cc1 | -3.6 | 0.1
O=C(CCn1nc(-c2ccc(Cl)cc2)ccc1=O)NCc1cccnc1 | -0.2 | 0.0
CC(=O)NCCSc1nc(-c2cccs2)cc(-c2ccc(F)cc2)c1C#N | -9.2 | 10.5*
COc1ccc(-c2cc(C(F)(F)F)nc(SCC(=O)N3CC4(C)CC3CC(C)(C)C4)n2)cc1 (stereo not drawn) | -3.5 | -0.5
C[C@H](CO)N1C[C@H](C)[C@H](CN(C)C)Oc2c(NC(=O)Nc3ccc4c(c3)OCO4)cccc2C1=O | 3.9 | /
C/C(=N\O)C(=O)Nc1cccc(C(F)(F)F)c1 | -0.4 | -1.6
Cc1cc(C)n(-c2ncc(S(=O)(=O)c3ccc(Cl)cc3)c(N)n2)n1 | -3.4 | -0.1
C[C@H](CO)N1C[C@H](C)[C@@H](CN(C)C(=O)Nc2ccc3c(c2)OCO3)Oc2ccc(NS(=O)(=O)c3cccs3)cc2C1=O | -7.0 | -0.1
Cc1cc(C)c(C#N)c(Sc2ncnc3c2nnn3Cc2ccccc2)n1 | 32.5 | 9.8*
C[C@H]1CN([C@@H](C)CO)C(=O)c2cc(NC(=O)Cc3ccccc3)ccc2O[C@H]1CN(C)C(=O)Nc1ccc2c(c1)OCO2 | 2.0 | 0.7
COc1ccc(C(=O)NCc2cccnc2)cc1C(=O)NCc1cccnc1 | 5.9 | 0.6
CC(Oc1ccc(C=C2C(=O)c3ccccc3C2=O)cc1)C(=O)O (stereo not drawn) | -6.1 | 0.7
Brc1cccc(Nc2ncnc3cc4nc[nH]c4cc23)c1 | -4.1 | 3.1
Cn1ccnc1Sc1cnc(SCC(=O)c2ccc(Cl)cc2)nc1-c1ccccc1 | 0.5 | -1.0
O=C1NC(=O)C(C(CC(=O)c2ccccc2)c2ccccc2Br)C(=O)N1 (stereo not drawn) | 1.0 | 0.9
CNC[C@@H]1Oc2ccc(NS(=O)(=O)c3ccc(Cl)cc3)cc2C(=O)N([C@@H](C)CO)C[C@H]1C | 0.1 | 0.0
Cc1noc(C)c1NC(=O)N(C)C[C@H]1Oc2c(NC(=O)c3ccc(-c4nccs4)cc3)cccc2C(=O)N([C@H](C)CO)C[C@H]1C | -5.0 | /
COC(=O)c1ccc(N2C(=O)C(C)SC2c2ccccc2)cc1 (stereo not drawn) | -4.9 | 0.8
O=c1c(-c2ccc(O)cc2)coc2cc(OC3OC(CO)C(O)C(O)C3O)cc(O)c12 (stereo not drawn) | -6.4 | -0.3
Cn1nnc(N2C(=O)C(=O)C(C(=O)c3ccco3)C2c2ccccc2)n1 (stereo not drawn) | -5.7 | 0.4
C[C@@H]1CN([C@H](C)CO)C(=O)c2cccc(NC(=O)c3nc4ccccc4s3)c2O[C@@H]1CN(C)C(=O)Nc1ccc(F)cc1 | -4.9 | /
c1ccc(CCNc2ncnc3scc(-c4ccccc4)c23)cc1 | 5.8 | /
N#Cc1ccccc1Cn1c(=O)n(Cc2ccc(C(=O)NCc3ccco3)cc2)c(=O)c2sccc21 | 2.0 | /
c1ccc2[nH]c(-c3nc4ccccc4s3)nc2c1 | 101.4* | -7.0
C[C@H](CO)N1C[C@H](C)[C@H](CN(C)Cc2ccc(-c3ccccc3)cc2)Oc2c(NC(=O)C3CC3)cccc2C1=O | 4.2 | /
Cc1noc(C)c1NC(=O)Nc1cccc2c1O[C@H](CN(C)Cc1ccc3c(c1)OCO3)[C@@H](C)CN([C@H](C)CO)C2=O | -2.6 | /
CN(C)CCCN1C(=O)C(=O)C(C(=O)c2cccs2)C1c1ccco1 (stereo not drawn) | 1.2 | 1.9
C[C@H](CO)N1C[C@H](C)[C@@H](CN(C)Cc2ccc3c(c2)OCO3)Oc2ccc(NC(=O)Nc3cccc4ccccc34)cc2C1=O | -2.2 | 0.5
O=C1c2ccccc2C2CC(c3cc(Cl)ccc3Cl)=NN12 (stereo not drawn) | 1.7 | 0.1
CNC[C@@H]1Oc2c(NC(=O)C3CC3)cccc2C(=O)N([C@H](C)CO)C[C@@H]1C | 2.2 | /
Cc1noc(C)c1S(=O)(=O)Nc1ccc2c(c1)C(=O)N([C@H](C)CO)C[C@H](C)[C@@H](CN(C)S(C)(=O)=O)O2 | 0.9 | 0.4
Cc1ccnc(NS(=O)(=O)c2ccc(NC(=O)/C=C/c3ccccc3)cc2)n1 | 6.0 | 0.3
C[C@@H]1CN([C@H](C)CO)C(=O)c2cccc(NC(=O)C3CC3)c2O[C@@H]1CN(C)S(=O)(=O)c1ccc(Cl)cc1 | 7.7 | /
Cc1ccc(S(=O)(=O)N(C)C[C@@H]2Oc3ccc(N(C)C)cc3C(=O)N([C@H](C)CO)C[C@H]2C)cc1 | 0.4 | -0.3

Ordered by value in A1 inh (highest first): some entries from above.
SMILES | A1 inh
CN(C)CCCN1C(=O)C(=O)C(C(=O)c2cccs2)C1c1ccco1 (stereo not drawn) | 1.9
C[C@H](CO)N1C[C@H](C)[C@@H](CN(C)Cc2ccc3c(c2)OCO3)Oc2ccc(NC(=O)Nc3cccc4ccccc34)cc2C1=O | 0.5
c1ccc2[nH]c(-c3nc4ccccc4s3)nc2c1 | -7.0

Next part.
SMILES | BJeLR viability | A1 inh
C[C@H](CCC(=O)O)[C@H]1CCC2[C@@H]3CC[C@@H]4C[C@H](O)CC[C@]4(C)C3C=C[C@@]21C (stereo partly drawn) | -4.5 | 0.0
C/C1=C/C[C@H](O)/C(C)=C\[C@H]2OC(=O)[C@@H](C)[C@@H]2CC1 | -1.9 | 0.7
CCN(CC)C(=S)SCc1cn2cccc(C)c2n1 | -3.9 | -0.2
Cc1noc(C)c1NC(=O)Nc1cccc2c1O[C@H](CN(C)CC1CC1)[C@H](C)CN([C@@H](C)CO)C2=O | 1.2 | /
C[C@H](CO)N1C[C@H](C)[C@@H](CN(C)S(=O)(=O)c2cccs2)Oc2ccc(NC(=O)Nc3cccc4ccccc34)cc2C1=O | 0.9 | 1.1
C[C@@H]1CN([C@@H](C)CO)C(=O)c2cc(NC(=O)CCN3CCOCC3)ccc2O[C@H]1CN(C)S(=O)(=O)c1cn(C)cn1 | 2.3 | 0.2
COC(=O)C[C@H]1[C@]2(C)C3=C(C)[C@H](c4ccoc4)C[C@H]3O[C@@H]2[C@H](OC(C)=O)C2[C@](C)(C(=O)OC)C=CC(=O)[C@@]21C (stereo partly drawn) | 0.4 | 0.6
CCC1CCCCN1Cc1c(O)ccc2cc(-c3nc4ccccc4[nH]3)c(=O)oc12 (stereo not drawn) | 3.5 | /
CCOC(=O)C1CCN(C(=O)CCc2nc3ccccc3[nH]2)CC1 | 1.9 | /
C[C@H](CO)N1C[C@H](C)[C@@H](CN(C)C(=O)NC2CCCCC2)Oc2c(NS(=O)(=O)c3cccs3)cccc2C1=O | -0.6 | /
C[C@H]1CN([C@@H](C)CO)C(=O)c2cc(NC(=O)Nc3cccc4ccccc34)ccc2O[C@H]1CN(C)Cc1ccc(-c2ccccc2)cc1 | -3.7 | 0.3
CCOC(=O)c1n[nH]c2c1CCCC2 | 4.2 | 1.4

One compound at a time, from the list above. Order of values: BJeLR viability	A1 inh
Cc1noc(C)c1NC(=O)Nc1cccc2c1O[C@H](CN(C)CC1CC1)[C@H](C)CN([C@@H](C)CO)C2=O across the screens: 1.2	/
CCOC(=O)c1n[nH]c2c1CCCC2 across the screens: 4.2	1.4

New compounds follow
SMILES | BJeLR viability | A1 inh
C[C@@H]1CN([C@@H](C)CO)C(=O)c2cccc(NC(=O)C3CCCCC3)c2O[C@H]1CN(C)Cc1ccc(-c2ccccc2)cc1 | 1.2 | /
C[C@H](CO)N1C[C@H](C)[C@@H](CN(C)CC2CCCCC2)Oc2ccc(NC(=O)CCC(F)(F)F)cc2C1=O | 2.0 | -0.1
COC(=O)c1ccc(C2N(Cc3ccccc3)CCN2Cc2ccccc2)cc1 | -2.9 | -0.5
C[C@H](CO)N1C[C@H](C)[C@H](CN(C)Cc2ccc(Cl)c(Cl)c2)Oc2c(NC(=O)Nc3ccc4c(c3)OCO4)cccc2C1=O | 2.4 | /
C[C@H]1CN([C@@H](C)CO)C(=O)c2cc(NC(=O)Nc3ccc(F)cc3)ccc2O[C@H]1CN(C)S(=O)(=O)c1cn(C)cn1 | -1.4 | 0.1
Cc1ccc(-c2noc(-c3cc(C(C)(C)C)nn3Cc3ccccc3)n2)cc1 | 2.6 | 0.2
C[C@H]1CN([C@@H](C)CO)C(=O)c2cc(NC(=O)Cn3cnnn3)ccc2O[C@H]1CN(C)Cc1ccc(C(F)(F)F)cc1 | -4.5 | 0.0
O=C(CC1CCCCC1)Nc1ccc2nc3n(c(=O)c2c1)CCCCC3 | 1.3 | -0.7
C[C@@H]1CN([C@H](C)CO)C(=O)c2cccc(NC(=O)c3ccncc3)c2O[C@H]1CN(C)Cc1ccc(C(F)(F)F)cc1 | -1.0 | /
CCOc1ccc(-n2c(=O)c3c4c(sc3n(CC(=O)N(CC)CC)c2=O)CCCCC4)cc1 | 8.6 | /
CC(=O)OCC(=O)[C@@]1(OC(C)=O)[C@@H](C)C[C@H]2[C@@H]3C[C@H](F)C4=CC(=O)C=C[C@]4(C)[C@@]3(F)[C@@H](O)C[C@@]21C | 37.6 | 1.4
